Screens: PubChem BioAssay, several laboratories
ALR H2O2 inh = blocks human ALR sulfhydryl oxidase activity | inhibition, % (no concentration beside the values) | 290,000 tested, 3.8% active | purified ALR, DTT oxidation, H2O2 HRP-luminol luminescence | AID 485317;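 active means mean and each replicate at 75% or more; inconclusive means only one of the two met; inactive means neither met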;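 further: stock transfer was 7.5 nL into about 7.5 µL; 0% = neutral wells and 100% = wells with inactivated enzyme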
Target sequence (P55789 whole entry, looked up): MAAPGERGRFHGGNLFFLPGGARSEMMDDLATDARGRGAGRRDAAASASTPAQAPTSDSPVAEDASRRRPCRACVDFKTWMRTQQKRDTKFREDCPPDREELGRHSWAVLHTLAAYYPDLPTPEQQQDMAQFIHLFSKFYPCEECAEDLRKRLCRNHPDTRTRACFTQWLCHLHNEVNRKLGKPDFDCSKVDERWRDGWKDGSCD
rRNA inh HTS = inhibitors of bacterial rRNA selective over humanized ribosomes | E. coli WT GFP vs humanized-ribosome RFP mutants, fluorescence, 24 h; hits give low values; DMSO median 0, no signal -100 | AID 720706 | GFP signal change (wild-type ribosome), % (concentration not given with the values) | 350,000 tested, 1.6% active;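 active means significant combined selectivity score with lowered wild-type GFP, culture density cut under 30%, mutant RFP and density less affected; inactive means any of these conditions unmet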; further: one replicate is shown; some compounds called inactive have numbers as strong as hits
Calb FLC = C. albicans growth modulation with fluconazole. C. albicans CaCi-2 (fluconazole-resistant clinical isolate) + fluconazole, Alamar Blue growth, 48 h. growth inhibition, % (test concentration not listed). 300,000 tested, 0.57% active. AID 1979;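 active means most replicates above 75%; inconclusive means exactly half above 75%; inactive means most below 75%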;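 further: all wells also contain fluconazole at 8 µg/ml as a sub-toxic cotreatment; 0% = median of DMSO wells and 100% = median of geldanamycin control wells; wells of about 8 µL received 7.5 nL stock; the first replicate is given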
A1 inh = inhibitors of the anti-apoptotic protein A1, read as caspase activation; 330,000 tested, 0.066% active; MEF A1-2A-BIM cells, Caspase-Glo 3/7 luminescence, 3 h; percent of clofoctol response, vehicle zero; caspase activation, % (test concentration not listed); AID 2462;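 active means over half of replicate activation scores above 10%, or exactly half above 10 with the replicate mean above 10; inconclusive means replicate mean below 10 yet half the replicates above 10; inactive means over half of replicates below 10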;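 further: wells of about 30 µL received 50 nL stock; many hits fall short of the cut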
Beta apoptosis = blocks beta cell apoptosis. INS-1E cytokine-induced death, ATP luminescence, 48 h; percent of positive-control rescue, neutral wells zero. AID 435005. protection from apoptosis, % (concentration not given with the values). 300,000 tested, 0.8% active;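 active means all replicates at 75% or more, or half of them and the mean; inconclusive means half reach 75% but not the mean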;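 further: 0% = cytokine-treated negative control wells and 100% = positive control rescue; higher means more ATP so stronger rescue from cytokine killing; wells of about 40 µL received 100 nL stock; the first replicate is given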
LANA-H2A inh = blocks KSHV LANA binding to histone H2A/H2B; cell-free LANA-H2A/H2B peptide, fluorescence polarization; inhibition, % (no concentration beside the values); 320,000 tested, 0.6% active; AID 2629; in the data active means inhibition mostly above about 10%, no sharp cut-off; inactive means mostly below about 6.7%;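 further: stock transfer was 7.5 nL into about 10 µL; 0% = median of vehicle wells and 100% = median of positive control wells; one replicate is shown; the record names a cut of 25% in any replicate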
T cruzi inh = blocks replication of Trypanosoma cruzi; inhibition, % (test concentration not listed); 300,000 tested, 1.4% active; T. cruzi beta-gal in NIH3T3, luminescence, 90 h;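 active means mean inhibition across valid replicates above about 55%, limit read from the data; inconclusive means mean below that limit but half or more replicates reach it; inactive means mean below it, under half of replicates reach it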;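 further: signal also drops with host cell toxicity which is not excluded here; 0% = plate median of DMSO wells and 100% = zero luminescence signal; higher percent means less beta-gal luminescence so fewer parasites; stock transfer was 50 nL into about 50 µL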
Beta2AR agonist = activates human beta-2 adrenergic receptor causing internalization; response, % (no concentration beside the values); P07550; Am2.2-beta2AR cells, FAP receptor internalization, flow cytometry; reference of the scale not given here; 340,000 tested, 0.43% active;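 active means response above a set limit, near 3 SD of response in nonfluorescent compounds, cut at about 42% in these data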;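 further: stock transfer was 100 nL into about 11 µL; a reference agonist was the positive control; negative values mostly stem from fluorescent compounds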
Target sequence (P07550 whole entry, looked up): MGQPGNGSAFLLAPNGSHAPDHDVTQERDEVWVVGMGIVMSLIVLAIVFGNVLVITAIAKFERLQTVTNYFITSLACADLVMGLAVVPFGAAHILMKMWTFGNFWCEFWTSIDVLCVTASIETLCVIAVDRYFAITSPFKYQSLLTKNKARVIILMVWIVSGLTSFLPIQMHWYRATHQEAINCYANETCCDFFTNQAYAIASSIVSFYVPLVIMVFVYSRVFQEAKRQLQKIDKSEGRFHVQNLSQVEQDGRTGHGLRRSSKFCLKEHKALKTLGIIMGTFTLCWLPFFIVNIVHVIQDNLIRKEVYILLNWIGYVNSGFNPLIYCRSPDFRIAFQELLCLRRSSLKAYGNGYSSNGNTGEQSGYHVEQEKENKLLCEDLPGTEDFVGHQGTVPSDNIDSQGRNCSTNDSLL
rRNA inh HTS OD600 = second read-out of rRNA inh HTS, no call of its own (marks repeat the call); OD600 change, %; measured here: OD600 growth;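 optical density of the mix in the first replicate; 0 = DMSO median and -100 = no signal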
rRNA inh HTS RFP = also measured in rRNA inh HTS; calls as there; RFP signal change, %; measured here: RFP humanized mutant strains;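 first replicate; 0 = DMSO median and -100 = no signal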
The depositor's hits bear a star.

O=C(c1cnn2c(-c3ccccc3)cc(-c3ccccc3)nc12)N1CCN(Cc2ccccc2)CC1 was read as ALR H2O2 inh -2, rRNA inh HTS 6, Calb FLC 2, A1 inh 0.0, Beta apoptosis 21, LANA-H2A inh 0.3, T cruzi inh 54, Beta2AR agonist -13, rRNA inh HTS OD600 5 and rRNA inh HTS RFP 5.9.
`O=C(Nc1cc(Cl)ccc1-n1cncn1)c1ccc(Br)o1` gave ALR H2O2 inh -4, rRNA inh HTS 2, Calb FLC -10, A1 inh 1.2, Beta apoptosis -9, LANA-H2A inh 4.3, T cruzi inh -9, Beta2AR agonist 11, rRNA inh HTS OD600 3 and rRNA inh HTS RFP 0.2.
`CSc1nc(SCC(=O)NCc2ccco2)c2c3c(sc2n1)COC(C)(C)C3` gave ALR H2O2 inh 5, Calb FLC -2, A1 inh -0.8, Beta apoptosis 12, LANA-H2A inh 5.8, T cruzi inh 1 and Beta2AR agonist 21.
For CC1CCCN(CCCNC(=O)c2nn(C)c3c2CS(=O)(=O)c2ccccc2-3)C1 (stereo not drawn) the results were ALR H2O2 inh -3, rRNA inh HTS 7, Calb FLC -1, A1 inh 2.2, Beta apoptosis -3, LANA-H2A inh -0.2, T cruzi inh 3, Beta2AR agonist -4, rRNA inh HTS OD600 11 and rRNA inh HTS RFP -1.0.
CS(=O)(=O)NNC(=O)c1sccc1OCc1ncc(C(F)(F)F)cc1Cl was read as ALR H2O2 inh 0, rRNA inh HTS 16, Calb FLC -3, A1 inh 0.1, Beta apoptosis -5, LANA-H2A inh 0.5, T cruzi inh 2, Beta2AR agonist -15, rRNA inh HTS OD600 18 and rRNA inh HTS RFP -0.3.
Screening CN(C)c1nc(OCCNC(=O)Nc2ccc(Cl)cc2)nc(N(C)C)n1 returned ALR H2O2 inh 0, rRNA inh HTS 9, Calb FLC 11, A1 inh 0.8, Beta apoptosis 2, LANA-H2A inh -0.5, T cruzi inh 8, Beta2AR agonist 0, rRNA inh HTS OD600 1 and rRNA inh HTS RFP 0.1.
`CCn1cc(/C=N\NC(=O)c2csc3ccccc23)c(C)n1` gave ALR H2O2 inh -4, Calb FLC -4, A1 inh -0.3, Beta apoptosis -3, LANA-H2A inh 0.6, T cruzi inh 12 and Beta2AR agonist 0.
`CCOc1ccc(CC(=O)OCn2nnc3ccccc3c2=O)cc1` gave ALR H2O2 inh -4, rRNA inh HTS 16, Calb FLC 5, A1 inh 0.7, Beta apoptosis -5, LANA-H2A inh 4.6, T cruzi inh -4, Beta2AR agonist 4, rRNA inh HTS OD600 6 and rRNA inh HTS RFP 1.5.
`CN(C)CCNC(=O)COc1cccc2c1OC(C)(C)C2` gave ALR H2O2 inh -3, rRNA inh HTS 19, Calb FLC -7, A1 inh 0.7, Beta apoptosis -1, LANA-H2A inh -4.9, T cruzi inh 5, Beta2AR agonist -2, rRNA inh HTS OD600 19 and rRNA inh HTS RFP 2.8.
For C=CCN(CC=C)S(=O)(=O)c1ccc(NC(=S)NC(=O)C2CC2)cc1 the results were ALR H2O2 inh 5, rRNA inh HTS 4, Calb FLC 2, A1 inh 0.2, Beta apoptosis 3, LANA-H2A inh 1.1, T cruzi inh 7, Beta2AR agonist 0, rRNA inh HTS OD600 -63 and rRNA inh HTS RFP 3.1.
Screening CSc1nnc2c(n1)OC(c1ccccn1)N(C(C)=O)c1ccccc1-2 (stereo not drawn) returned ALR H2O2 inh -6, Calb FLC -1, A1 inh 0.5, Beta apoptosis -6, LANA-H2A inh -11, T cruzi inh -6 and Beta2AR agonist -7.
For CCOc1ccc(S(=O)(=O)n2cc(F)c(=O)[nH]c2=O)cc1 the results were ALR H2O2 inh -15, rRNA inh HTS 3, Calb FLC -1, A1 inh 0.4, Beta apoptosis -1, LANA-H2A inh -9.7, T cruzi inh 2, Beta2AR agonist 6, rRNA inh HTS OD600 -13 and rRNA inh HTS RFP -2.6.
`COc1ccccc1CNC(=O)CN1C(=O)c2ccc([N+](=O)[O-])cc2C1=O` gave ALR H2O2 inh -8, rRNA inh HTS 1, Calb FLC 0, A1 inh 0.7, Beta apoptosis -2, LANA-H2A inh -0.1, T cruzi inh -8, Beta2AR agonist 6, rRNA inh HTS OD600 6 and rRNA inh HTS RFP 1.3.
Screening CCN1CCN(Cc2ccc(NC(=O)c3ccc(C)c(NC(=O)c4ccc5n[nH]nc5c4)c3)cc2C(F)(F)F)CC1 returned ALR H2O2 inh -10, rRNA inh HTS 0, Calb FLC -8, A1 inh -1.6, Beta apoptosis -10, LANA-H2A inh -0.5, T cruzi inh -19, Beta2AR agonist -9, rRNA inh HTS OD600 -1 and rRNA inh HTS RFP -0.6.
CC(=O)Nc1ccc(N2C(=O)c3cccc4c(O)ccc(c34)C2=O)cc1 was read as ALR H2O2 inh -16, rRNA inh HTS 31, Calb FLC -5, A1 inh 0.2, Beta apoptosis 4, LANA-H2A inh 14, T cruzi inh -2, Beta2AR agonist -40, rRNA inh HTS OD600 6 and rRNA inh HTS RFP 1.8.
`CCCNC(=O)c1onc(CSc2ccc(Cl)cc2)c1C(=O)NCC1CC1` gave ALR H2O2 inh -14, rRNA inh HTS -14, Calb FLC 2, A1 inh -0.2, Beta apoptosis -5, LANA-H2A inh -6.2, T cruzi inh 1, Beta2AR agonist -3, rRNA inh HTS OD600 -12 and rRNA inh HTS RFP -11.
`COc1ccccc1N1CCN(CC(=O)Nc2ccc(-n3cnnn3)cc2)CC1` gave ALR H2O2 inh -3, rRNA inh HTS 6, Calb FLC 4, A1 inh 0.7, Beta apoptosis 3, LANA-H2A inh -382, T cruzi inh -17, Beta2AR agonist -2, rRNA inh HTS OD600 4 and rRNA inh HTS RFP 2.6.
Cc1ccc(SCC(=O)Nc2nnc(-c3ccco3)o2)cc1 was read as ALR H2O2 inh 1, rRNA inh HTS -8, Calb FLC 2, A1 inh -0.2, Beta apoptosis -4, LANA-H2A inh -1.0, T cruzi inh -4, Beta2AR agonist 2, rRNA inh HTS OD600 -27 and rRNA inh HTS RFP -5.5.
Cc1cc(NC(=O)C(C)SCC(=O)OCc2ccc([N+](=O)[O-])cc2)no1 (stereo not drawn) was read as ALR H2O2 inh -1, rRNA inh HTS -5, Calb FLC 0, A1 inh -0.2, Beta apoptosis 2, LANA-H2A inh -2.4, T cruzi inh 1, Beta2AR agonist -8, rRNA inh HTS OD600 2 and rRNA inh HTS RFP -1.6.
For COc1cc(/C=N\NC(=O)c2ccccc2F)ccc1Oc1ccc([N+](=O)[O-])cn1 the results were ALR H2O2 inh -8, rRNA inh HTS -6, Calb FLC -5, A1 inh 0.2, Beta apoptosis -6, LANA-H2A inh -2.8, T cruzi inh -2, Beta2AR agonist -4, rRNA inh HTS OD600 0 and rRNA inh HTS RFP -0.7.
For CCn1c(CCNS(=O)(=O)c2ccccc2Br)nnc1SC the results were rRNA inh HTS 5, Calb FLC -3, A1 inh 0.3, Beta apoptosis 1, LANA-H2A inh -0.9, T cruzi inh 2, Beta2AR agonist -6, rRNA inh HTS OD600 1 and rRNA inh HTS RFP -1.0.
`CCOCCCNC(=O)Cn1cc2c(n1)CCCCC2` gave ALR H2O2 inh -5, rRNA inh HTS -2, Calb FLC -9, A1 inh -0.3, Beta apoptosis -8, LANA-H2A inh -12, T cruzi inh 3, Beta2AR agonist 3, rRNA inh HTS OD600 5 and rRNA inh HTS RFP -0.7.
Screening COC(=O)c1sccc1NC(=O)c1ccc(OC)cc1 returned ALR H2O2 inh -3, Calb FLC 7, A1 inh -1.3, Beta apoptosis 10, LANA-H2A inh -3.0, T cruzi inh -19 and Beta2AR agonist 8.
`CCOc1cc(C(=O)OCc2cccc(OC)c2OC)ccc1OCC(=O)N1CCOCC1` gave ALR H2O2 inh -27, rRNA inh HTS -7, Calb FLC 10, A1 inh 1.9, Beta apoptosis 0, LANA-H2A inh 0.7, T cruzi inh 7, Beta2AR agonist 4, rRNA inh HTS OD600 -7 and rRNA inh HTS RFP -0.7.
Screening O=[N+]([O-])c1ccc(N2CCc3ccccc3C2)cc1 returned ALR H2O2 inh -5, rRNA inh HTS -4, Calb FLC -2, A1 inh 0.7, LANA-H2A inh -2.4, T cruzi inh -3, Beta2AR agonist 5, rRNA inh HTS OD600 8 and rRNA inh HTS RFP 4.5.
Screening CCOc1c2ccc(C(=O)NC3CCCc4ccccc43)cc2nn1CC (stereo not drawn) returned ALR H2O2 inh 4, rRNA inh HTS -5, Calb FLC -3, A1 inh 0.9, Beta apoptosis 7, LANA-H2A inh 0.8, T cruzi inh 4, Beta2AR agonist -11, rRNA inh HTS OD600 -7 and rRNA inh HTS RFP 1.3.
Screening CCOc1cc(C(=O)NC(C)c2ccncc2)cc(OCC)c1OCC (stereo not drawn) returned ALR H2O2 inh -1, Calb FLC -4, A1 inh 1.1, Beta apoptosis -1, LANA-H2A inh -0.8, T cruzi inh 5 and Beta2AR agonist 9.
For Nc1nc(NCC2CCCO2)nc(Nc2cccc(Cl)c2)c1[N+](=O)[O-] (stereo not drawn) the results were ALR H2O2 inh 2, rRNA inh HTS 9, Calb FLC 7, A1 inh 0.0, Beta apoptosis 12, LANA-H2A inh -6.6, T cruzi inh -14, Beta2AR agonist -2, rRNA inh HTS OD600 1 and rRNA inh HTS RFP 4.5.
CCNS(=O)(=O)c1ccc(NC(=O)c2c(-c3ccccc3)noc2C)cc1 was read as ALR H2O2 inh -9, rRNA inh HTS -3, Calb FLC -8, A1 inh -0.9, Beta apoptosis 4, LANA-H2A inh 1.0, T cruzi inh 0, Beta2AR agonist -2, rRNA inh HTS OD600 -7 and rRNA inh HTS RFP -0.9.
`O=C(NNC(=S)Nc1cccc(C(F)(F)F)c1)c1ccc(Cl)cc1Cl` gave ALR H2O2 inh 48, Calb FLC 70, A1 inh -0.6, Beta apoptosis 8, LANA-H2A inh 8.7, T cruzi inh -16 and Beta2AR agonist 9.
CCn1c(SCC(N)=O)nc2ccccc2c1=O was read as ALR H2O2 inh -13, rRNA inh HTS 4, Calb FLC -11, A1 inh -3.1, Beta apoptosis -3, LANA-H2A inh -8.8, T cruzi inh -10, Beta2AR agonist -4, rRNA inh HTS OD600 -1 and rRNA inh HTS RFP 3.5.
For COc1ccc(-c2nc(CN3CCC(C(=O)N4CCOCC4)CC3)c(C)o2)c(OC)c1 the results were ALR H2O2 inh 2, rRNA inh HTS 14, Calb FLC -9, A1 inh 1.2, Beta apoptosis -1, LANA-H2A inh 7.3, T cruzi inh -1, Beta2AR agonist -9, rRNA inh HTS OD600 11 and rRNA inh HTS RFP 0.8.
Screening CC1=NOC(=O)/C1=C\c1ccc(-c2cccc(Cl)c2)o1 returned Calb FLC -2, A1 inh inconclusive, Beta apoptosis -13, LANA-H2A inh 8.1, T cruzi inh -22 and Beta2AR agonist 101*.

This is a subset; count on the stated rates, not on these rows.
